Screens as filed in PubChem.
Vaccinia inh: blocks a specific stage of Vaccinia orthopoxvirus infection, primary screen, cell-based, single point; Vaccinia-infected cells, mCherry/Venus stage reporter fluorescence; active compounds read low; some inactives read as strong as hits; activity change (mCherry), % (test concentration not listed); 89,000 compounds, 0.01% hits; AID 1053133, 2014;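 active = mCherry past -33% and 40 or more points under the early reporter, replicates agreeing; inconclusive = past -33% without that gap or agreement; tested in A549 cells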;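 note: scaled between vehicle wells and reference inhibitor wells; 23 nL library stock went into each well; one replicate is shown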
Vaccinia inh Venus: recorded beside Vaccinia inh, whose call it bears; activity change (Venus), %; measured here: Venus reporter, other viral stage;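 negative = less Venus signal; first of two replicates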
Starred values were filed as active, the others as inactive; ? = inconclusive; / = no result given; & = joins results of further samples. Only part of the results is shown; count on the stated rates, not on these rows.

Start of the listing, in advance, six compounds:
SMILES	Vaccinia inh	Vaccinia inh Venus
C[C@@H]1CN([C@@H](C)CO)C(=O)c2cc(NS(C)(=O)=O)ccc2O[C@H]1CN(C)S(=O)(=O)c1ccc(F)cc1	6.3	-3.6
COc1ccc2c3c(n(C)c2c1)[C@H](CO)N(Cc1nccs1)CC31CN(C(=O)CC2CC2)C1	14.7	-5.0
COC(=O)C[C@@H]1CC[C@H]2[C@@H](COc3ccc(NC(=O)Nc4cccc(F)c4)cc3C(=O)N2C)O1	5.1	2.7
COc1ccc2c3c([nH]c2c1)[C@H](CO)N(S(=O)(=O)c1cn(C)cn1)CC31CCN(CC2CCCC2)CC1	-13.4	-3.1
C[C@@H]1CN([C@@H](C)CO)C(=O)c2cccc(NS(=O)(=O)c3ccc(Cl)cc3)c2O[C@H]1CN(C)S(=O)(=O)c1cccs1	-2.8	-3.7
C[C@H]1CN([C@@H](C)CO)C(=O)c2cccc(NC(=O)c3cnccn3)c2O[C@H]1CN(C)Cc1ccc(Cl)c(Cl)c1	-6.4	-4.4

The whole of this part, repeating the preview:
SMILES	Vaccinia inh	Vaccinia inh Venus
C[C@@H]1CN([C@@H](C)CO)C(=O)c2cc(NS(C)(=O)=O)ccc2O[C@H]1CN(C)S(=O)(=O)c1ccc(F)cc1	6.3	-3.6
COc1ccc2c3c(n(C)c2c1)[C@H](CO)N(Cc1nccs1)CC31CN(C(=O)CC2CC2)C1	14.7	-5.0
COC(=O)C[C@@H]1CC[C@H]2[C@@H](COc3ccc(NC(=O)Nc4cccc(F)c4)cc3C(=O)N2C)O1	5.1	2.7
COc1ccc2c3c([nH]c2c1)[C@H](CO)N(S(=O)(=O)c1cn(C)cn1)CC31CCN(CC2CCCC2)CC1	-13.4	-3.1
C[C@@H]1CN([C@@H](C)CO)C(=O)c2cccc(NS(=O)(=O)c3ccc(Cl)cc3)c2O[C@H]1CN(C)S(=O)(=O)c1cccs1	-2.8	-3.7
C[C@H]1CN([C@@H](C)CO)C(=O)c2cccc(NC(=O)c3cnccn3)c2O[C@H]1CN(C)Cc1ccc(Cl)c(Cl)c1	-6.4	-4.4
C[C@H]1CN([C@@H](C)CO)C(=O)Cc2cc(NS(=O)(=O)c3ccc(F)cc3)ccc2O[C@@H]1CN(C)C(=O)Nc1ccc(C(F)(F)F)cc1	2.4	8.9
COC(=O)C[C@H]1CC[C@@H]2[C@H](COC[C@@H](O)CN2C(=O)Nc2cccc(F)c2)O1	12.7	7.3
COc1cccc(S(=O)(=O)N[C@@H]2C=C[C@H](CC(=O)NCc3ccncc3)O[C@@H]2CO)c1	5.1	17.4
C[C@H](CO)N1C[C@H](C)[C@@H](CN(C)Cc2ccc(Cl)c(Cl)c2)Oc2c(NC(=O)C3CC3)cccc2C1=O	?	/
C[C@H]1CN([C@@H](C)CO)C(=O)c2cccc(NS(=O)(=O)c3cccs3)c2O[C@@H]1CN(C)C(=O)Nc1ccc(F)cc1	17.5	17.7
CO[C@H]1CN(C)C(=O)c2cc(NC(=O)C3CC3)ccc2OC[C@@H](C)N(Cc2cccc(F)c2)C[C@H]1C	-21.1	-14.0
COCC(=O)Nc1ccc2c(c1)[C@H]1C[C@H](CC(=O)NCc3ccccn3)O[C@@H](CO)[C@H]1O2	3.5	-10.0
O=C(C[C@@H]1C[C@H]2c3cc(NS(=O)(=O)c4ccc(F)cc4)ccc3O[C@H]2[C@H](CO)O1)NCc1ccc(Cl)cc1	?	/
COc1cccc(S(=O)(=O)N[C@H]2C=C[C@H](CC(=O)NC3CCC3)O[C@H]2CO)c1	-3.8	0.4
CO[C@@H](CN(C)Cc1cc(F)ccc1F)[C@H](C)CN([C@@H](C)CO)S(=O)(=O)c1ccc(C)cc1	-7.7	-2.9
COc1ccc2c3c([nH]c2c1)[C@@H](CO)N(C(C)=O)CC31CN(Cc2ccccc2Cl)C1	?	/
O=C(C[C@H]1CC[C@@H]2[C@H](COC[C@H](O)CN2C(=O)c2ccc3c(c2)OCO3)O1)NCCN1CCCC1	13.3	9.1
COc1ccccc1NC(=O)N[C@@H]1CC[C@@H](CCn2cc(-c3ccccc3)nn2)O[C@@H]1CO	1.7	-3.4
COc1ccc(CN(C)C[C@H]2Oc3ccc(NC(=O)c4ccncc4)cc3C(=O)N([C@@H](C)CO)C[C@@H]2C)cc1	0.8	-0.3
Cc1ccc(S(=O)(=O)N[C@@H]2CC[C@H](CC(=O)NC3CCCCC3)O[C@@H]2CO)cc1	-0.1	-2.8
O=C(C[C@H]1CC[C@@H](NS(=O)(=O)c2ccc(F)cc2)[C@H](CO)O1)NCCN1CCCCC1	12.5	4.4
C[C@H](CO)N1C[C@H](C)[C@H](CN(C)S(=O)(=O)c2ccc(Cl)cc2)Oc2ccc(NC(=O)CCN3CCOCC3)cc2CC1=O	6.2	-0.7
CN1C(=O)c2cc(NC(=O)Nc3cccc(Cl)c3)ccc2OC[C@H]2O[C@@H](CC(=O)NCCc3ccncc3)CC[C@H]21	14.4	2.0
C[C@H](O)C#Cc1ccc2c(c1)O[C@H](CN(C)C(=O)C1CCC1)[C@H](C)CN([C@@H](C)CO)S2(=O)=O	-6.7	-5.8
O=C(C[C@H]1C[C@H]2c3cc(NC(=O)Nc4ccccc4)ccc3O[C@H]2[C@@H](CO)O1)NCC1CC1	-1.4	-1.6
COc1cc2c(cc1OC)CN(C(=O)[C@H]1[C@@H]3C(=O)O[C@@H](c4ccccc4)[C@@H](c4ccccc4)N3[C@@H](c3ccc(O)cc3)[C@]13C(=O)Nc1ccc(C#CC4(O)CCCCCC4)cc13)CC2	-2.9	1.0
COc1ccc2c3c(n(C)c2c1)[C@H](CO)N(C(=O)Nc1ccc(F)cc1)CC31CCN(Cc2ccccc2F)CC1	?	/
C[C@H](CO)N1C[C@H](C)[C@@H](CN(C)S(=O)(=O)c2ccccc2)Oc2ccc(NS(=O)(=O)c3ccccc3)cc2C1=O	19.0	18.6
COc1cccc(S(=O)(=O)N(C)C[C@H]2OCc3cnnn3CCCC(=O)N([C@H](C)CO)C[C@@H]2C)c1	4.6	5.3
C[C@@H]1CN([C@@H](C)CO)C(=O)c2cccc(NS(=O)(=O)c3ccc(F)cc3)c2O[C@@H]1CN(C)Cc1ccc(C(F)(F)F)cc1	-28.7	-18.7
CNC[C@@H]1OCCCC[C@@H](C)Oc2ccc(NC(=O)Nc3ccc4c(c3)OCO4)cc2C(=O)N([C@@H](C)CO)C[C@H]1C	-9.4	8.4
C[C@H]1CN([C@@H](C)CO)C(=O)c2cccc(NC(=O)NC3CCCCC3)c2O[C@H]1CN(C)S(C)(=O)=O	10.5	8.4
C[C@H]1CCCCO[C@H](CN(C)C(=O)C2CCCCC2)[C@@H](C)CN([C@@H](C)CO)C(=O)c2cc(NC(=O)CCC(F)(F)F)ccc2O1	-29.8	-10.7
COc1ccc(NC(=O)Nc2ccc3c(c2)C(=O)N([C@@H](C)CO)C[C@H](C)[C@H](CN(C)Cc2ccc(Cl)c(Cl)c2)OCCCC[C@@H](C)O3)cc1	3.6	5.5
O=C(C[C@@H]1C[C@@H]2c3cc(NC(=O)NC4CCCC4)ccc3O[C@@H]2[C@H](CO)O1)NCC1CC1	-1.1	-1.6
COc1ccccc1-c1ccc(C2[C@H]3CNC[C@@H]2N3Cc2nccs2)cc1 (stereo partly drawn)	-5.1&6.4	4.7&4.3
C[C@@H]1CN([C@@H](C)CO)C(=O)c2cc(C#CCN(C)C)cnc2O[C@@H]1CN(C)C(=O)c1cccc(F)c1	13.9	-0.2
C[C@H](CO)N1C[C@H](C)[C@H](CN(C)Cc2ccccc2)Oc2ncc(-c3cncnc3)cc2C1=O	-2.9	-3.7
COc1ccccc1-c1ccc2n(c1=O)C[C@@H]1[C@@H](CO)[C@H](C(=O)NCc3ccccn3)[C@H]2N1C	22.0	12.6
C[C@H](CO)N1C[C@H](C)[C@H](CN(C)C)Oc2ncc(C3=CCCC3)cc2C1=O	12.5	8.2
CCCNC(=O)N1[C@@H](C#N)[C@H](c2ccccc2-c2ccccc2F)[C@@H]1CO	-5.7	-0.5
O=C(C[C@H]1CC[C@H]2[C@@H](COC[C@@H](O)CN2Cc2ccc(F)cc2)O1)NCCc1ccccc1	-0.1	-0.9
C[C@H]1CN([C@@H](C)CO)C(=O)Cc2cc(NC(=O)Nc3ccc(F)cc3)ccc2O[C@H]1CN(C)S(=O)(=O)c1ccc(F)cc1	?	/
C[C@@H]1CN([C@@H](C)CO)C(=O)c2cc(-c3ccccc3)cnc2O[C@@H]1CN(C)Cc1cccnc1	28.5	8.8
Cc1ccccc1-c1ccc([C@@H]2[C@H]3CN(C(=O)Nc4cccc(F)c4)CCCCN3[C@H]2CO)cc1	?	/
CCC(=O)N(C)C[C@@H]1Oc2ncc(-c3ccc(F)cc3)cc2C(=O)N([C@H](C)CO)C[C@H]1C	20.8	11.5
CCC(=O)Nc1ccc2c(c1)OC[C@@H](C)N(CCC(F)(F)F)C[C@@H](C)[C@@H](OC)CN(C)C2=O	0.4	-5.1
O=C(C1CC1)N1CCCCN2[C@H](CO)[C@@H](c3ccc(C#CC4(O)CCCC4)cc3)[C@H]2C1	6.1	1.9
C[C@@H]1CN([C@H](C)CO)C(=O)Cc2cc(NC(=O)Cc3cn(C)c4ccccc34)ccc2O[C@H]1CN(C)Cc1ccc(C(=O)O)cc1	23.3	15.4
CCO[C@H]1OC(C(=O)NC2CC2)=C[C@@H](c2coc3ccccc3c2=O)[C@@H]1CCCO	-0.8	2.0
C[C@H]1CN([C@@H](C)CO)C(=O)c2cccc(NS(C)(=O)=O)c2O[C@@H]1CN(C)Cc1ccc2c(c1)OCO2	-3.0	3.5
CO[C@@H]1CN(C)C(=O)c2ccc(NC(C)=O)cc2OC[C@H](C)N(Cc2cc(F)ccc2F)C[C@H]1C	-13.4	-14.5
C[C@@H]1C=C(C(=O)NCc2ccccc2)O[C@H](OCc2ccc(CO)cc2)C1	24.1	8.7
Cc1noc(C)c1S(=O)(=O)Nc1ccc2c(c1)C(=O)N([C@@H](C)CO)C[C@H](C)[C@H](CN(C)S(=O)(=O)c1ccccc1)OCCCC[C@H](C)O2	?	/
O=C(O)C[C@H]1C=C[C@H](NC(=O)Nc2ccccc2)[C@@H](CO)O1	9.9	4.4
O=C(NCC[C@H]1CC[C@@H](NS(=O)(=O)c2cccc(F)c2)[C@@H](CO)O1)C1CCC1	7.6	13.0
N#C[C@H]1[C@H](c2ccccc2-c2cccc(F)c2)[C@H](CO)N1C(=O)C1CCC1	11.7	11.6
C[C@@H](NC(=O)C[C@@H]1C[C@H]2c3cc(NC(=O)NC4CCCC4)ccc3O[C@H]2[C@@H](CO)O1)c1ccccc1	0.1	-2.9
C[C@H]1CN([C@@H](C)CO)C(=O)c2cccc(NC(=O)Nc3cccc4ccccc34)c2O[C@H]1CN(C)Cc1ccc2c(c1)OCO2	-6.3	-8.7
(list continues)
SMILES	Vaccinia inh	Vaccinia inh Venus
C[C@@H]1CCCCO[C@@H](CN(C)C(=O)Nc2cccc3ccccc23)[C@@H](C)CN([C@H](C)CO)C(=O)c2cc(NS(=O)(=O)c3ccc(F)cc3)ccc2O1	33.2	18.1
CC=Cc1ccc2n(c1=O)C[C@@H]1[C@@H](CO)[C@H](C(=O)NCc3cccc(F)c3)[C@H]2N1S(C)(=O)=O (mixture of isomers)	9.6	7.6
C[C@@H]1CN([C@H](C)CO)C(=O)c2cc(NS(=O)(=O)c3cn(C)cn3)ccc2O[C@@H](C)CCCCO[C@H]1CN(C)C	13.8	4.9
Cc1noc(C)c1S(=O)(=O)N(C)C[C@@H]1OCCCC[C@@H](C)Oc2ccc(NC(=O)Nc3cccc4ccccc34)cc2C(=O)N([C@H](C)CO)C[C@@H]1C	18.0	21.9
C[C@@H](NC(=O)C[C@@H]1CC[C@H](NC(=O)C2CCOCC2)[C@@H](CO)O1)c1ccccc1	10.0	7.9
CNC(=O)C[C@H]1CC[C@@H]2[C@@H](COc3ccc(NC(=O)Nc4cc(C)cc(C)c4)cc3C(=O)N2C)O1	-2.0	-6.0
O=C(Nc1ccc2c(c1)OCO2)N[C@@H]1CC[C@H](CCNC(=O)C2CCOCC2)O[C@@H]1CO	5.5	8.2
C[C@@H]1CCCCO[C@@H](CN(C)Cc2ccc(C(F)(F)F)cc2)[C@@H](C)CN([C@H](C)CO)C(=O)c2cc(NC(=O)NC3CCCCC3)ccc2O1	-5.0	-3.7
C/C=C/c1ccc([C@H]2[C@H](CO)N(C(=O)CN(C)C)C23CN(C(=O)C2CC2)C3)cc1	4.2	3.8
C[C@@H]1CN([C@@H](C)CO)C(=O)Cc2cc(NC(=O)Cc3cn(C)c4ccccc34)ccc2O[C@@H]1CN(C)CC1CCCCC1	-23.1	-14.7
C[C@@H]1CN([C@H](C)CO)C(=O)c2cccc(NC(=O)Nc3cccc4ccccc34)c2O[C@H]1CN(C)S(=O)(=O)c1ccc(F)cc1	2.6	5.1
CCc1cnc(N2[C@H](C#N)[C@H](c3ccccc3)[C@H]2CO)s1	-2.5	1.7
C[C@@H]1CN([C@@H](C)CO)C(=O)Cc2cc(NC(=O)CCCCCC(=O)Nc3ccccc3N)ccc2O[C@@H]1CN(C)Cc1ccc(-c2ccccc2)cc1	?	/
O=C(N[C@H]1CC[C@H](CCNC(=O)C2CCC2)O[C@H]1CO)c1ccncc1	4.1	2.3
O=C(c1ccccc1F)N1CC(=O)N2[C@@H](CO)[C@@H](c3ccc(C#Cc4ccc(F)cc4)cc3)[C@@H]2C1	?	/
O=C(Cc1ccccc1)N1C[C@H]2[C@@H](c3ccccc31)[C@H](CO)N2C(=O)Cc1ccccc1	0.6	3.1
CN1CCN(C(=O)C[C@@H]2C=C[C@@H](NC(=O)Nc3ccccc3F)[C@H](CO)O2)CC1	6.2	5.1
Cc1ccc(S(=O)(=O)N(C)C[C@@H]2OCCCC[C@@H](C)Oc3ccc(NC(=O)CCCCCC(=O)Nc4ccccc4N)cc3C(=O)N([C@H](C)CO)C[C@@H]2C)cc1	14.6	-0.3
COc1cccc(S(=O)(=O)N2CCCCN3[C@H](CO)[C@H](c4ccc(-c5ccccc5)cc4)[C@@H]3C2)c1	-10.2	-23.0
